Compound activity as filed in PubChem.
RN4220 kill: S. aureus RN4220 growth inhibition. OD600, 16 h. inhibition, % (no concentration beside the values). actives 0.33% (n = 330,000). AID 1259311;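 active = z-score of -3 or lower and OD600 up to 0.18 on both plates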;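 also: plate controls were untreated cells for no effect and reference antibiotic for full effect; stock transfer was 100 nL into about 80 µL; one replicate is shown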
PrP UTR inh: inhibition of PrP 5' UTR reporter expression | cell-based PrP 5' UTR mRNA reporter, plate reader | inhibition, % (no concentration beside the values) | actives 0.35% (n = 340,000) | AID 488862;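 active = every replicate at 50% or more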;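 also: 0 = median of the neutral control wells; tested in H4 reporter cells; numbers are from one replicate; inactives centre near -14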
BJeLR lethal: BJeLR cell viability loss; inhibition, % (test concentration not listed); actives 0.17% (n = 300,000); BJeLR (HRASV12) viability, CellTiter-Glo ATP luminescence, 48 h; reference of the scale not given here;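 active = replicate mean above 50%; inconclusive = above 50% but judged a plate artefact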;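 also: 50 nL library stock added to about 25 µL; numbers are from one replicate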
Mtb hypoxia inh: reduces hypoxia-regulated biosensor signal in M. tuberculosis; actives 0.1% (n = 300,000); fluorescence inhibition, % (no concentration beside the values); AID 1159583; M. tuberculosis hypoxia-regulated fluorescent reporter, fluorescence;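 active = 35 to 45% if threefold the growth effect, above 45% if 1.5-fold the growth effect; inactive = the rest, general growth blockers included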;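 also: wells of about 50 µL received 100 nL stock; 0% = vehicle wells and 100% = reference inhibitor wells; whole bacteria with a GFP reporter of the hypoxia response; strong numbers were not always called active; many hits fall short of the cut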
Autofluor counter: flagged as autofluorescent in microsphere protease counterscreen. compound autofluorescence counterscreen, microsphere flow cytometry; hits give high values. fluorescence intensity (concentration not given with the values). actives 3.1% (n = 360,000). AID 624483;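 active = at least 3 SD above the mean of all compounds, about 16000 in these data; inconclusive = too few beads counted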;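 also: 100 nL of 1 mM stock went into each well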
Sa ugtP lethal: kills S. aureus RN4220 lacking UgtP; S. aureus RN4220 ugtP deletion, OD600 growth, 16 h; some inactives read as strong as hits; growth inhibition, % (test concentration not listed); actives 0.54% (n = 330,000); AID 1259309;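 active = z-score under -3 and OD600 up to 0.15 on both plates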;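 also: plate controls were untreated wells for no effect and antibiotic for full effect; wells of about 80 µL received 100 nL stock; the first replicate is given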
Mtb hypoxia inh growth: second read-out of Mtb hypoxia inh, no call of its own (marks repeat the call); growth inhibition, %; measured here: M. tuberculosis growth (absorbance);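 0% = vehicle and 100% = reference antibiotic; read after six days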
An asterisk follows results filed as active; ? = inconclusive; nt = not tested or not shown.

Structure,Autofluor counter,PrP UTR inh,RN4220 kill,Mtb hypoxia inh growth,BJeLR lethal,Sa ugtP lethal,Mtb hypoxia inh
O=C(NN=Cc1ccc(O)c([N+](=O)[O-])c1)C1CC1(c1ccccc1)c1ccccc1 (stereo not given),nt,nt,6.8,10.1,nt,3.4,5.4
Cc1c(-c2ccccc2)cn2c1-c1ccc(C)n1CC2,4991,-13.6,-1.1,4.0,-8.6,-6.4,4.2
Cc1ccc(CNC(=O)Nc2ccc3c(c2)N(C)C(=O)CS3)cc1,2649,-2.3,0.2,-3.7,8.3,0.5,10.5
CC(C)(C)S(=O)c1cccs1 (stereo not given),8070,-16.6,3.3,4.2,-7.5,2.3,12.2
CCC(=O)NCCNc1ccc([N+](=O)[O-])cn1,nt,nt,-0.6,3.2,5.9,-1.8,10.5
CCOc1ccc(N2C(=O)CSC23CCCCC3)cc1,3963,-23.4,-3.2,8.9,-0.7,5.1,9.6
O=C(CN1C(=O)C2CC=CCC2C1=O)Nc1ccccc1N1CCCC1 (stereo not given),nt,-12.6,2.6,-10.8,-7.0,0.4,-6.4
Cc1cc(F)ccc1S(=O)(=O)N1CCCOC1CNC(=O)C(=O)NC1CCCC1 (stereo not given),6255,-26.9,nt,nt,-2.6,nt,nt
COc1ccc(C(=O)N2CC(=O)Nc3ccc(C)cc3C2c2ccccc2)cc1 (stereo not given),3236,-13.2,1.2,6.1,18.2,15.2,4.8
O=C(N/C(=C/c1ccc(Cl)cc1)C(=O)N1CCCC1)c1ccccc1,4882,-22.8,-1.1,8.8,5.3,-2.6,14.4
O=c1oc(CCO)cc2ccc(-c3ccc4[nH]ccc4c3)cc12,3156,-60.4,3.6,3.6,nt,4.1,-4.9
COC(=O)c1cc(S(=O)(=O)N2CCN(c3ccccc3F)CC2)c[nH]1,6305,-6.9,-2.0,3.4,-6.2,-0.6,12.9
O=C(CSc1nnc(Cc2cccs2)n1C1CCCCC1)N1CCCc2ccccc21,2795,-10.5,6.7,2.5,1.0,5.6,8.5
N#CC1=C(N)N(c2ccc(Oc3ccccc3)cc2)C(=O)C1,3259,-17.9,19.7,15.5,1.0,7.4,4.2
CC(C)(C)C(=O)CC(=O)Nc1ccc(Cl)c(N)c1,12498,-70.7,-0.6,6.5,-8.2,-1.4,3.9
CCSc1nnc(NC(=O)CN(C)S(=O)(=O)c2ccc(F)cc2)s1,11284,-13.5,5.0,7.4,-4.4,10.4,12.9
Cc1ccc(S(=O)(=O)Oc2ccc(/C=N/NC(=O)c3nn(C)cc3[N+](=O)[O-])cc2)cc1,2156,-0.6,nt,nt,-2.3,nt,nt
CCOc1ccc(C=NNC(=O)c2ccc(Cn3cc(Br)cn3)o2)cc1,nt,nt,5.6,9.3,nt,-2.0,13.3
O=C(Nc1ccccc1C(=O)NCc1ccco1)NC1CCCCC1,2611,-11.9,-2.5,nt,4.9,2.7,nt
CCc1ccc(OCCCC(=O)O)c(Br)c1,10574,19.6,2.0,-4.9,-4.7,-6.5,-4.4
COC(=O)c1ccc(C(=O)N(CCN(C)C)c2nc3c(Cl)cccc3s2)cc1,4006,-2.6,2.4,-12.6,6.9,1.6,-0.7
CCOC(=O)C1=C(C)N=c2sc(=Cc3cccn3C)c(=O)n2C1c1cccc(OC)c1OC (stereo not given),nt,nt,2.5,1.7,nt,10.2,4.9
CC(Cc1ccccc1)NC(=O)/C=C/c1ccc([N+](=O)[O-])cc1 (stereo not given),2125,-10.2,1.8,9.7,-9.6,1.9,1.8
COc1ccccc1N/N=C/c1c(CO)cnc(C)c1O,8674,-14.1,nt,nt,-5.2,nt,nt
CCOC(=O)C(NC(=O)c1cccnc1)(Nc1cccc(C)n1)C(F)(F)F (stereo not given),4853,-39.1,25.1,nt,-3.2,-13.0,nt
CC(=O)C1=C(O)C(=O)N(Cc2ccccc2)C1c1ccc(Br)cc1 (stereo not given),4494,-25.9,17.4,4.2,-1.9,3.6,-2.2
COc1cc(CNCCO)cc(Br)c1OCc1ccccc1,nt,-14.6,2.4,10.7,1.6,-1.9,-2.3
Cc1c(N2CCCC2)cc2c(c1N)C(C)(C)CC2(C)C,3897,nt,9.2,6.1,2.8,9.6,7.4
CCN(CC)Cc1cc(C(=O)O)c(-c2ccccc2)o1,3285,-4.2,3.1,8.0,3.5,9.0,-3.2
CC(C)(C)NC(=O)C(=O)NNC(=O)C12CC3CC(CC(C3)C1)C2,9950,-28.7,-0.7,6.2,0.5,-2.5,6.3
COc1cccc(CN(C)C(=O)c2cccnc2SC)c1OC,3482,-15.5,-0.5,9.0,7.2,1.3,6.5
COc1ccc(Cl)cc1NC(=O)CN(C)C(=O)CCCNC(=O)c1ccc(Cl)cc1,?,-30.6,2.0,3.8,nt,3.0,6.1
COc1ccc(C(=O)Nc2ccc(C(=O)Nc3nccs3)cc2)cc1[N+](=O)[O-],2667,-15.1,1.1,4.7,18.9,0.4,1.4
COc1ccc(CNC(=O)C2CC(=O)N(c3ccc(OCC(=O)N4CCCCC4)cc3)C2)cc1 (stereo not given),3449,7.9,-2.6,nt,0.2,-5.2,nt
Cc1ccc(CN(C(=O)c2csnn2)C(C(=O)NC2CCCC2)c2ccccn2)cc1 (stereo not given),5424,-9.7,2.0,10.6,-9.8,3.2,3.6
COC(=O)C1=C(c2ccc(F)cc2OCc2ccccc2)CC2CCC1N2C(=O)NC1Cc2ccccc2C1 (stereo not given),nt,nt,-6.5,8.1,nt,-21.3,8.6
CCc1cccc(NC(=O)CCSCCC(=O)Nc2cccc(CC)c2)c1,4713,-11.7,-0.3,8.9,5.6,-8.8,6.2
Cc1cnc(C(=O)Nc2ccc(C)c(S(=O)(=O)N3CCCCCC3)c2)cn1,5574,2.7,3.9,14.7,nt,1.6,0.1
NNC(=O)CN1C(=O)Nc2ccc(Cl)cc2C1c1ccccc1 (stereo not given),3633,-12.7,-0.8,2.3,4.1,-4.4,0.2
O=C(O)COCC(=O)Nc1ccc2c(c1)ncn2CCc1ccccc1,3227,-1.9,-2.1,-2.8,-0.5,-3.1,11.6
O=C(COc1ccc(S(=O)(=O)N2CCCCC2)cc1)N1CCN(Cc2ccccc2)CC1,5099,0.0,3.4,nt,-1.1,-7.5,nt
CC(OCCN1CCCC1)(c1ccc(F)cc1)c1ccc(F)cc1,8470,-13.3,-6.4,-0.3,7.6,9.0,5.1
COc1ccc(NC(=O)CCCC2CCCCC2)c(OC)c1,nt,-20.0,9.6,2.4,-2.4,13.9,15.4
Cc1ccccc1OCC(=O)N1CCCc2ccccc21,2477,-22.2,6.3,11.5,-1.3,-1.3,0.3
COc1ccccc1C(=O)N1CCN(c2cccc(C(F)(F)F)c2)CC1,4544,-28.7,3.0,-1.3,14.6,8.3,0.0
Cc1cc(C)n(/N=C/c2ccc(O)cc2)c(=O)c1C#N,4092,-15.8,nt,nt,3.2,nt,nt
COc1ccc(NC(=O)c2ccccc2NC(=O)c2ccccc2C(=O)O)c(OC)c1,3731,-9.8,3.6,2.1,-5.8,0.8,13.2
COc1ccc(OCCN2C(=O)c3ccccc3C2=O)c([N+](=O)[O-])c1,5473,-12.1,4.3,-1.1,-1.8,5.8,4.5
O=C(NNC(=O)C1CC1c1ccccc1)c1ccccc1[N+](=O)[O-] (stereo not given),7603,-19.8,2.5,11.5,-9.6,7.1,4.7
CCOC(=O)NN=Cc1ccc(OC(=O)c2ccc3c(c2)OCO3)cc1,nt,nt,6.4,1.0,nt,-8.4,2.7
Cc1ccc(NC(=S)NNc2ccc([N+](=O)[O-])cc2S(=O)(=O)Nc2ccccc2C(=O)O)cc1C,1952,6.5,-2.0,3.5,10.8,25.9,11.9
CCOC(=O)NC(=O)C(C#N)=NNc1ccc(F)cc1,nt,nt,5.4,0.3,nt,4.5,2.3
Cc1ccsc1/C=C(\C#N)C(=O)NC1CCS(=O)(=O)C1 (stereo not given),4530,-22.6,1.8,17.2,-0.2,3.0,6.2
O=C(NCC1(c2ccccc2)CCCC1)C(=O)NCC1(c2ccccc2)CCCC1,10307,-4.0,3.2,-6.0,-2.0,7.8,3.1
COc1ccccc1Nc1nc(N)nc(CSC(=S)N2CCN(c3ccccc3)CC2)n1,4369,-21.8,8.0,9.0,-11.8,3.3,-0.4
Cc1cc(NC(=O)CSc2nc3sc4c(c3c(=O)n2C)CCCC4)no1,17695*,-6.2,-1.8,3.7,-14.4,-1.9,-4.6
O=C(NCCN1C(=O)CSC1=O)c1ccccc1,5476,-7.8,-2.4,-0.1,nt,3.1,2.0
Cc1nc2ccccc2c(=O)n1-c1ccc(Cl)cc1[N+](=O)[O-],4048,80.3*,8.3,9.4,-2.5,4.9,12.8
O=C(NC1=NCCS1)c1ccccc1OCc1ccc(F)cc1,3189,-24.1,3.4,6.3,8.7,9.0,7.8
CCCCCC/C=C/c1ccc(OC)c([C@H]2[C@H]3C=CC[C@@H](C)[C@@H]3C(=O)N2Cc2ccccc2)c1,3058,-2.1,nt,nt,5.1,nt,nt

Four entries already listed, arranged by count of non-hydrogen atoms, falling:
Structure,Autofluor counter,PrP UTR inh,RN4220 kill,Mtb hypoxia inh growth,BJeLR lethal,Sa ugtP lethal,Mtb hypoxia inh
O=C(NCC1(c2ccccc2)CCCC1)C(=O)NCC1(c2ccccc2)CCCC1,10307,-4.0,3.2,-6.0,-2.0,7.8,3.1
O=C(O)COCC(=O)Nc1ccc2c(c1)ncn2CCc1ccccc1,3227,-1.9,-2.1,-2.8,-0.5,-3.1,11.6
COc1ccc(OCCN2C(=O)c3ccccc3C2=O)c([N+](=O)[O-])c1,5473,-12.1,4.3,-1.1,-1.8,5.8,4.5
Cc1cc(C)n(/N=C/c2ccc(O)cc2)c(=O)c1C#N,4092,-15.8,nt,nt,3.2,nt,nt

The listing picks up with the 5 entries that preceded the break.
Structure,Autofluor counter,PrP UTR inh,RN4220 kill,Mtb hypoxia inh growth,BJeLR lethal,Sa ugtP lethal,Mtb hypoxia inh
Cc1cc(NC(=O)CSc2nc3sc4c(c3c(=O)n2C)CCCC4)no1,17695*,-6.2,-1.8,3.7,-14.4,-1.9,-4.6
O=C(NCCN1C(=O)CSC1=O)c1ccccc1,5476,-7.8,-2.4,-0.1,nt,3.1,2.0
Cc1nc2ccccc2c(=O)n1-c1ccc(Cl)cc1[N+](=O)[O-],4048,80.3*,8.3,9.4,-2.5,4.9,12.8
O=C(NC1=NCCS1)c1ccccc1OCc1ccc(F)cc1,3189,-24.1,3.4,6.3,8.7,9.0,7.8
CCCCCC/C=C/c1ccc(OC)c([C@H]2[C@H]3C=CC[C@@H](C)[C@@H]3C(=O)N2Cc2ccccc2)c1,3058,-2.1,nt,nt,5.1,nt,nt
CCOC(=O)C1=C(C)NC(=S)NC1c1ccc(OCC(=O)N2CCCCC2)cc1 (stereo not given),5728,-12.9,2.9,8.1,1.7,13.9,5.8
Cc1nnc2c(NCCc3ccccc3)nc3ccccc3n12,3590,-17.1,2.7,-0.1,9.4,-4.3,-3.3
CC(=Nc1ccccc1)Nc1ccccc1,5233,-6.7,-2.3,5.9,nt,4.5,8.7
c1ccc(-c2nnc(Cn3c4ccccc4c4nc5ccccc5nc43)o2)cc1,3011,-31.5,-6.0,2.8,nt,0.7,15.0
Cc1cc2ccccc2c(=O)n1CC(=O)Nc1ccc2c(c1)OCO2,2878,-12.4,1.1,-2.1,-1.0,1.7,0.5
O=C(O)/C=C\C(=O)NNC(=O)c1cc(-c2ccccc2)n[nH]1,4745,-11.4,4.6,2.0,2.3,5.0,-10.6
COc1ccc(NC(=O)Cc2nnc(SCC(=O)NC3CCCC3)n2C)cc1,3957,-8.7,2.6,12.6,2.0,-4.3,2.0
Cn1c(Cl)c(C(=O)Nc2ccccc2)c2ccccc21,2586,-25.2,11.7,14.7,nt,0.8,17.8
COc1cccc(OCc2nc(-c3ccc(Br)o3)no2)c1,3170,-9.3,16.1,-0.3,-15.2,4.9,13.8
CCOC(=O)C1=C(COC(=O)c2ccc3ccccc3c2O)NC(=O)NC1C (stereo not given),3096,-3.7,2.9,-1.2,nt,-11.2,4.7
